Autofluor counter: flagged as autofluorescent in microsphere protease counterscreen; fluorescence intensity (no concentration beside the values); hit rate 3.1% among 360,000; compound autofluorescence counterscreen, microsphere flow cytometry; hits give high values;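 active = at least 3 SD above the mean of all compounds, about 16000 in these data; inconclusive = too few beads counted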;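 also: 100 nL of 1 mM stock went into each well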
PrP UTR inh: inhibition of PrP 5' UTR reporter expression; hit rate 0.35% among 340,000; inhibition, % (concentration not given with the values); cell-based PrP 5' UTR mRNA reporter, plate reader;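 active = every replicate at 50% or more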;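 also: 0 = median of the neutral control wells; tested in H4 reporter cells; numbers are from one replicate; inactives centre near -14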
Sa RN4220 lethal: growth inhibition of S. aureus RN4220, primary screen, OD600; 16 h; inhibition, % (no concentration beside the values); hit rate 0.33% among 330,000;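 active = z-score of -3 or lower and OD600 up to 0.18 on both plates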;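 also: plate controls were untreated cells for no effect and reference antibiotic for full effect; stock transfer was 100 nL into about 80 µL; one replicate is shown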
Mtb hypoxia inh: PubChem AID 1159583; hit rate 0.1% among 300,000; fluorescence inhibition, % (test concentration not listed); M. tuberculosis hypoxia-regulated fluorescent reporter, fluorescence;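 active = 35 to 45% if threefold the growth effect, above 45% if 1.5-fold the growth effect; inactive = the rest, general growth blockers included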;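 also: wells of about 50 µL received 100 nL stock; 0% = vehicle wells and 100% = reference inhibitor wells; whole bacteria with a GFP reporter of the hypoxia response; strong numbers were not always called active; many hits fall short of the cut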
BJeLR viability: MLPCN primary cell-based screen for lethality selective to Ras in HRASV12 cells; BJeLR (HRASV12) viability, CellTiter-Glo ATP luminescence, 48 h; reference of the scale not given here; hit rate 0.17% among 300,000; AID 1554, 2009; inhibition, % (no concentration beside the values);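 active = replicate mean above 50%; inconclusive = above 50% but judged a plate artefact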;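 also: 50 nL library stock added to about 25 µL; numbers are from one replicate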
Sa ugtP lethal: growth inhibition of ugtP-null S. aureus, primary screen, RN4220 ugtP deletion, OD600; 16 h; some inactives read as strong as hits; growth inhibition, % (test concentration not listed); hit rate 0.54% among 330,000;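 active = z-score under -3 and OD600 up to 0.15 on both plates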;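 also: plate controls were untreated wells for no effect and antibiotic for full effect; wells of about 80 µL received 100 nL stock; the first replicate is given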
Mtb hypoxia inh growth: also measured in Mtb hypoxia inh; calls as there; growth inhibition, %; measured here: M. tuberculosis growth (absorbance);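 0% = vehicle and 100% = reference antibiotic; read after six days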
* = called active by the depositor; u = inconclusive; x = not tested or not shown.

SMILES | Autofluor counter | PrP UTR inh | Sa RN4220 lethal | Mtb hypoxia inh | Mtb hypoxia inh growth | BJeLR viability | Sa ugtP lethal
COc1ccc(C=Nc2ccc3[nH]ncc3c2)c(O)c1 | 4929 | -10.7 | 2.7 | -0.1 | -9.9 | -1.4 | -1.2
COc1ccc(C(CC(=O)O)NC(=O)c2ccccc2)cc1OC (stereo not given) | 2220 | -21.4 | -3.0 | x | x | 7.5 | 3.5
COc1cccc(N2C(=O)Nc3ccccc3C2(O)C(=O)NCc2ccc3c(c2)OCO3)c1 (stereo not given) | 3970 | 3.2 | 0.8 | 11.2 | 13.2 | -1.2 | -4.6
CCOC(=O)C(CC)C(C)=NNC(=O)CCC(=O)Nc1ccc(Cl)cc1Cl (stereo not given) | x | x | -1.9 | -8.1 | 7.9 | x | -3.9
CC(C)(C)c1ccc(-c2nnc(SCC(=O)c3ccc4c(c3)OCCO4)o2)cc1 | 3288 | -12.8 | 5.1 | -6.2 | -0.9 | 4.1 | -10.3
CN(C)c1nc(SCC#N)nc(N(C)C)n1 | u | -27.8 | 6.7 | 11.5 | 3.7 | -3.6 | 9.7
COc1ccccc1CNC(=O)CN1C(=O)COc2ccc(S(=O)(=O)NC3CCCC3)cc21 | 4501 | -12.4 | 1.6 | 2.3 | 0.1 | 5.7 | 0.6
CCC(CC)C(=O)Nc1ccc(Nc2ccccc2)cc1 | 2097 | -12.9 | 1.0 | -4.6 | -8.9 | 0.5 | -6.4
Cc1nc(-c2ccc(C(=O)N3CCCC3)cc2)cs1 | 3314 | -57.5 | 5.0 | 11.1 | 1.5 | 4.8 | 19.6
CO[C@@]1(NC(=O)CSCC#N)C(=O)N2C(C(=O)O)=C(CSc3nnnn3C)CS[C@@H]21 | 4447 | -14.4 | x | x | x | 2.8 | x
Cc1ccc(NC(=O)CCNC(=O)c2ccccc2Cl)cc1S(=O)(=O)N1CCOCC1 | 3277 | -26.9 | -0.1 | 7.4 | 5.8 | x | 5.1
Oc1[nH]c2ccc(Br)cc2c1N=Nc1ccc(F)cc1 | 4208 | -20.0 | -11.9 | 6.1 | -6.8 | 12.0 | -0.1

Next section, overlapping the part above by 5 compounds.
SMILES | Autofluor counter | PrP UTR inh | Sa RN4220 lethal | Mtb hypoxia inh | Mtb hypoxia inh growth | BJeLR viability | Sa ugtP lethal
CCC(CC)C(=O)Nc1ccc(Nc2ccccc2)cc1 | 2097 | -12.9 | 1.0 | -4.6 | -8.9 | 0.5 | -6.4
Cc1nc(-c2ccc(C(=O)N3CCCC3)cc2)cs1 | 3314 | -57.5 | 5.0 | 11.1 | 1.5 | 4.8 | 19.6
CO[C@@]1(NC(=O)CSCC#N)C(=O)N2C(C(=O)O)=C(CSc3nnnn3C)CS[C@@H]21 | 4447 | -14.4 | x | x | x | 2.8 | x
Cc1ccc(NC(=O)CCNC(=O)c2ccccc2Cl)cc1S(=O)(=O)N1CCOCC1 | 3277 | -26.9 | -0.1 | 7.4 | 5.8 | x | 5.1
Oc1[nH]c2ccc(Br)cc2c1N=Nc1ccc(F)cc1 | 4208 | -20.0 | -11.9 | 6.1 | -6.8 | 12.0 | -0.1
C=CS(=O)(=O)N(Cc1ccccc1Br)C(CO)CC(C)C (stereo not given) | x | x | 14.0 | 20.3 | 4.9 | x | 10.3
Cc1cc(C(=O)CSc2nc3ccccc3[nH]2)c(C)n1Cc1ccco1 | 2551 | -67.7 | 4.6 | 5.2 | 2.0 | 4.2 | -10.2
Cc1cccc(N2C(=O)NC(=O)/C(=C\c3ccc4c(c3)CCCN4Cc3ccccc3)C2=O)c1 | 5655 | -42.6 | 4.6 | 2.2 | -10.1 | -17.5 | 1.3
Cn1c(CNC(=O)c2ccc(Cl)cc2)nnc1SCC(=O)N1CCOCC1 | 4068 | -9.8 | 1.3 | 4.7 | 1.0 | -14.5 | 10.5
CCc1nn(-c2ccccc2)c2c1-c1cc(OC)c(OC)cc1C1(N2)C(=O)Nc2ccccc21 (stereo not given) | 2461 | -65.8 | -3.5 | -3.1 | 8.9 | -4.6 | -6.2
CCOC(=O)C(NS(=O)(=O)c1ccc(C)cc1)(C(F)(F)F)P(=O)(OCC(C)C)OCC(C)C (stereo not given) | 2013 | -10.1 | 22.3 | 14.3 | 12.4 | -5.9 | 5.9
COC(=O)c1ccc(/C=N\NC(=O)c2ccc(C)cc2Cl)cc1 | 4476 | -11.9 | x | x | x | 20.5 | x
COc1ccc(CCNC(=O)c2cc(=O)[nH]c3ccccc23)cc1 | 6312 | -5.8 | 0.0 | -5.0 | 3.1 | -5.1 | -2.9
CCCCCC(=O)Nc1cccc(C2=NOC3(C2)C[C@H](C(N)=O)N(C(=O)CCCCC)C3)c1 (stereo not given in full) | 3539 | -24.0 | x | x | x | -2.1 | x
COc1ccc(N2C(=O)C3CCCN3C2c2cccc(C)c2)cc1 (stereo not given) | 5784 | -15.6 | 4.8 | x | x | 5.0 | 7.7
COc1ccccc1C1C(C#N)=C(N)N(c2cccnc2)C2=C1C(=O)CC(C)(C)C2 (stereo not given) | 4306 | -12.1 | 5.3 | -2.9 | 3.6 | -10.4 | -0.5
O=C(NCCN1CCOCC1)Nc1ccc(F)cc1 | 3504 | -13.9 | 3.8 | -3.0 | 10.3 | -4.6 | 4.8
CCOC(=O)C1=CCC(c2ccco2)N(S(=O)(=O)c2ccc(C)cc2)C1C(=O)OCC (stereo not given) | x | x | 5.2 | 5.7 | 8.2 | x | 4.9
CCOCCCNS(=O)(=O)c1cc(Br)cc2c1N(C(=O)C1CC1)CC2 | 8714 | -13.8 | 3.5 | 10.9 | 13.6 | -17.7 | 4.1
COc1ccc(C2c3ccc(O)cc3Oc3ncn4nc(-c5ccco5)nc4c32)cc1OC (stereo not given) | 4639 | 10.8 | 3.4 | 12.7 | 0.7 | -11.3 | -1.1
COc1ccc(CCNC(=O)COc2ccc(S(=O)(=O)NC3CCCCC3)cc2Cl)cc1OC | 2492 | -16.1 | -9.5 | -0.2 | -3.1 | -3.5 | -8.2
O=C(Cn1nc(Br)nc1Br)c1ccccc1 | 3323 | -14.0 | -1.3 | 1.6 | 1.1 | -10.4 | -5.2
COc1cccc(C=NNC(=O)c2cccs2)c1 | x | x | 2.8 | 11.2 | 7.3 | x | -3.1
CCc1ccc(NC(=O)CCS(=O)(=O)c2cccc3nsnc23)cc1 | 8887 | -11.6 | 4.7 | 2.4 | 1.8 | 0.2 | 19.4
COc1ccc(-c2ccc(Nc3ccc(S(=O)(=O)N4CCCC4)cc3)nn2)cc1OC | 22548* | -71.9 | 6.0 | 0.3 | -0.6 | -5.7 | 27.7
COc1cccc2c(N/N=C/c3ccccc3)cc(C)nc12 | 3038 | -9.3 | x | x | x | 0.1 | x
Cc1ccc(NS(=O)(=O)c2ccc(N/N=C/c3ccccc3OCC(=O)O)c([N+](=O)[O-])c2)c(C)c1 | 6195 | -25.1 | x | x | x | 3.5 | x
CC(NC(=S)NCc1ccccc1)C12CC3CC(CC(C3)C1)C2 (stereo not given) | 4878 | -30.6 | 8.1 | 0.0 | 1.2 | 5.1 | 21.2
CCOC(=O)C1CCCN(C(=O)c2cccc(S(=O)(=O)N(Cc3ccccc3)c3ccccc3OC)c2)C1 (stereo not given) | 5577 | -12.9 | 3.5 | 5.8 | 0.0 | -3.7 | 12.5
Cc1ccc(O/C=C2\OC(=O)c3ccccc32)cc1 | 4486 | -16.4 | 8.5 | 13.6 | 10.1 | -7.1 | -10.1
CC(=O)Nc1ccc(CN2CCCCCC2)cc1 | x | -0.3 | 1.0 | 9.9 | -1.0 | -7.2 | 12.7
Cc1cccc(-c2noc(CCC(=O)N3CCN(c4cc(C)ccc4C)CC3)n2)c1 | 3651 | -44.8 | 0.8 | -17.1 | -12.8 | x | -3.0
COc1cccc(C(=O)N2CCCC(CCC(=O)NCc3ccc(F)c(F)c3)C2)c1 (stereo not given) | 4059 | -45.7 | 14.2 | -5.1 | -5.4 | 15.0 | 4.0
COc1ccc(C2C(C(=O)Nc3cccnc3)=C(C)Nc3nc(-c4cccs4)nn32)cc1 (stereo not given) | 21944* | 13.8 | -3.2 | -6.4 | 5.3 | 4.5 | 15.6
Cn1c(C(=O)N2CCN(c3ccccn3)CC2)cc2ccccc21 | 3606 | -16.9 | 0.0 | 7.9 | -10.9 | 2.1 | 6.5
C=C1C2[C@H](OC(C)=O)[C@@H]3CC(=O)[C@]4(C)OC[C@@]3(C)[C@@]4(O)[C@@H](OC(C)=O)[C@H](OC(C)=O)[C@@]2(COC(=O)c2ccccc2)[C@@H](OC(C)=O)C[C@@H]1O (stereo not given in full) | 4159 | -13.4 | 29.9 | x | x | -1.8 | 5.7
COC(=O)CN=Cc1c(C)[nH]n(-c2ccccc2)c1=O | 2164 | -29.4 | 0.0 | -3.5 | 8.8 | 7.7 | 7.8
COc1cc(/C=C/[N+](=O)[O-])ccc1OC(=O)c1cccnc1 | 3752 | -14.4 | 7.2 | 2.0 | -3.0 | 26.9 | -4.4
CC(NC(=O)OCc1ccccc1)C(=O)NNC(=O)C(C)NC(=O)OCc1ccccc1 (stereo not given) | x | x | 5.9 | 19.0 | 13.4 | x | 7.7
Cc1cc(N2CCCCC2C)nc(-c2ccccc2O)n1 (stereo not given) | 3261 | -14.8 | -2.1 | -13.7 | -10.5 | -14.8 | 8.1
Cc1ccc(C2=NC3(CCCCC3)NC2=S)cc1 | 2608 | -61.8 | 2.8 | 1.4 | -10.0 | -12.5 | 4.8
CN1OC(COC(=O)c2ccccc2)CC1c1ccccc1 (stereo not given) | 11274 | -20.1 | 1.5 | 7.6 | 6.3 | -8.6 | 2.9
COc1ccc(/C(O)=C/C(=O)C(=O)NNC(=O)C(O)(c2ccccc2)c2ccccc2)cc1 | 2546 | -20.4 | 2.1 | x | x | 10.3 | 26.4
Cc1cccc(CN2C(=O)CCSc3ccc(Cl)cc32)c1 | 4199 | -8.4 | -11.9 | x | x | 6.0 | 10.0
CCOC(=O)c1cc(C)sc1N1C(=O)C2C3C=CC(C3)C2C1=O (stereo not given) | 24106* | -3.5 | 8.4 | 10.3 | 12.9 | 6.4 | 10.9
O=C(CCc1ccccc1)NNC(=O)c1ccc(NC(=O)c2ccccc2)cc1 | 2080 | 5.7 | x | x | x | 3.7 | x
COc1ccc(CNC(=O)N2CCN(C(=O)c3ccccc3)CC2)cc1 | u | -16.1 | 3.2 | 11.9 | 3.4 | x | 5.8
CN(CCc1ccccn1)C(=O)Nc1cccc(Cl)c1 | 5231 | -6.9 | -0.3 | -12.0 | -2.6 | -1.9 | 1.1
COCCNC(=O)CN1CCN(S(=O)(=O)c2ccc3c(c2)CCCC3)CC1 | 4387 | -10.6 | 5.3 | 7.1 | 4.2 | x | 7.3
Cc1cc(C)cc(NC(=O)COC(=O)CCCNC(=O)c2ccc(Cl)cc2)c1 | 2481 | -13.6 | -3.8 | 5.4 | 3.2 | 4.6 | 98.7*
O=C(Cc1ccccc1)NCCSC1CCCCC1 | 2058 | -24.5 | 2.4 | -4.7 | 0.5 | -4.4 | 5.5
CCN(c1cccc(C)c1)S(=O)(=O)c1csc(C(N)=O)c1 | 4012 | -20.6 | 5.0 | 4.0 | 1.3 | 4.1 | 1.1
CC(C)(C)C(O)=C(C#N)c1nc2ccccc2[nH]1 | x | x | -0.2 | -1.4 | 27.0 | x | -12.6
COc1ccc(NC(=O)C2CC(=O)N(CCc3ccc(Cl)cc3)C2)cc1 (stereo not given) | 5447 | -11.2 | 0.9 | -7.9 | -15.5 | -10.0 | 0.1
O=C(Nc1ccc(Oc2cccnc2)cc1)c1ccccc1Cl | 2613 | -9.5 | 0.2 | 15.8 | 6.0 | -0.1 | 3.3
CN(C)c1nc(OCCNC(=O)COc2ccc(Cl)cc2Cl)nc(N(C)C)n1 | 22763* | -9.1 | 11.9 | 10.9 | 10.9 | -4.4 | 0.6
Cc1ccc(-c2nn3nnnc3c3ccccc23)cc1 | 3172 | -12.5 | -11.2 | 21.7 | 7.5 | 1.2 | -0.6
COc1ccccc1NS(=O)(=O)c1ccc(O)cc1 | 4344 | -14.4 | 7.3 | 7.2 | 8.9 | 5.0 | -1.9
CCCCCCSc1nnc(-c2cnn(-c3ccccc3)c2-n2cccc2)n1C | 4811 | -11.6 | -8.9 | x | x | -16.8 | 12.1
O=C(NCC(=O)N1CCCC(C(F)(F)F)C1)c1ccc2ccccc2c1 (stereo not given) | 5170 | -29.8 | 3.0 | 2.8 | 3.4 | 9.1 | 6.1

Source: PubChem (several laboratories)

This is a random part of the collection (roughly 4% active in at least one column).
